# Screening data as filed in PubChem.
# Env fusion inh: inhibitors of HIV Env-mediated cell fusion | HeLa-JRFL Env/CEM21 cell fusion, luciferase | inhibition, % at 12.3 µM | 360,000 tested, 1.1% active | AID 651610;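 active means mean replicate inhibition score of at least 50 and every replicate individually at or above 50; inconclusive means only one of the two criteria met; inactive means mean below 50 and not all replicates reaching 50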;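 further: 0% = plate neutral controls and 100% = maraviroc near 300 nM; one replicate is shown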
# PABP polyA inh: PABP-poly(A) binding inhibition | PABP-poly(A) RNA binding, fluorescence polarization | 290,000 tested, 1% active | inhibition, % at 35 µM | P11940;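 active means 50% or more with normal probe brightness, or confirmed in later tests; inconclusive means above 50% with abnormal brightness, or retests that disagree; inactive means below 50% or failed in later tests; about a fifth of its hits are not listed in these tables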;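 further: calls also rest on retests at 20 µM and on dose response follow-up; controls were probe without protein and protein plus probe with vehicle; some compounds called inactive have numbers as strong as hits; many hits fall short of the cut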
# Target sequence (P11940 whole entry, looked up): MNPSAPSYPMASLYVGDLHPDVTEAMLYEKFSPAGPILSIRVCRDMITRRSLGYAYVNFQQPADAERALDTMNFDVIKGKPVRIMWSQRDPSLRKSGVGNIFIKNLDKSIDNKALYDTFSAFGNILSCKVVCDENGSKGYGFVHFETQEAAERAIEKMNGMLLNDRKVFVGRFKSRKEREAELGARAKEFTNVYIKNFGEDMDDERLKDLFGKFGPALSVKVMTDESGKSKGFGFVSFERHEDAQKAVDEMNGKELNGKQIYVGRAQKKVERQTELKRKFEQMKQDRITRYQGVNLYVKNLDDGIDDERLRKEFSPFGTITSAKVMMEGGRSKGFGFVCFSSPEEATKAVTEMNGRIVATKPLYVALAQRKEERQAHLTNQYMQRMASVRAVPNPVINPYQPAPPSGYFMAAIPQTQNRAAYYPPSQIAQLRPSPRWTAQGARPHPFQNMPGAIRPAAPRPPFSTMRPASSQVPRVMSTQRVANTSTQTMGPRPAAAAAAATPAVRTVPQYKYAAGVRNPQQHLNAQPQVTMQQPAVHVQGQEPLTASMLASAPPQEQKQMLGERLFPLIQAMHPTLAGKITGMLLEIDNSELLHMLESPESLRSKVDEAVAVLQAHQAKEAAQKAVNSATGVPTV
# Rce1 inh: inhibitors of yeast Ras-converting enzyme; Q03530; yeast membranes, quenched prenylated peptide cleavage fluorescence; calls only; 290,000 tested, 0.27% active; AID 2563;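 active means fall in fluorescence gain of 50% or more versus controls, with final raw signal at or below 3038400; inconclusive means same 50% fall but final raw signal above 3038400; inactive means fall in fluorescence gain under 50%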;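 further: plate controls were neutral control wells for no effect and wells lacking membranes for full effect; tested at 10 µM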
# Target sequence (Q03530 whole entry, looked up): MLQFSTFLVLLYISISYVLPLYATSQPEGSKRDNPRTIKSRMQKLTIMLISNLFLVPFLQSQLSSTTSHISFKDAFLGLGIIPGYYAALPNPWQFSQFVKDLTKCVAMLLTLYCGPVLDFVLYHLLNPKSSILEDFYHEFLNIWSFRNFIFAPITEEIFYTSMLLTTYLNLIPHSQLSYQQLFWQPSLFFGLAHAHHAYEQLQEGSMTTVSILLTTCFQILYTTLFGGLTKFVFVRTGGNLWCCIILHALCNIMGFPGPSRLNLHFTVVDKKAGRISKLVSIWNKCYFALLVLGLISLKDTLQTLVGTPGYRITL
# CSC inhib: blocks cancer stem cells. cancer stem cell-like cells viability, luminescence. inhibition, % at 7.5 µM. 300,000 tested, 1.1% active;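 active means mean at 75% or more and at least half the replicates too; inconclusive means mean and replicates disagree; tested in HMLE shEcad cells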;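 further: 0% = median of negative and 100% = median of positive control wells; the first replicate is given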
# eIF4H FP inh: inhibitors of RNA binding by human eIF4H; Q15056; eIF4H fluorescence polarization binding assay; inhibition, % at 35 µM; 290,000 tested, 0.94% active; AID 2012;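 active means 50% or more with normal probe brightness, or confirmed in later tests; inconclusive means above 50% with abnormal brightness, or retests that disagree; inactive means below 50% or failed in later tests; about a fifth of its hits are not listed in these tables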;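 further: calls also rest on retests at 20 µM and on dose response follow-up; 0% = protein and probe with vehicle and 100% = probe without protein; strong numbers were not always called active; many hits fall short of the cut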
# MT1-MMP act inh: blocks activation of human MT1-MMP. HT1080 RFP-PRO-GFP cells, GFP/RFP ratio fluorescence, overnight; percent of plate control window, DMSO zero. GFP/RFP ratio change, % at 20 µM. AID 651647. 360,000 tested, 0.061% active;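 active means GFP/RFP ratio change of at least 30% with cell ATP level not reduced by more than half and red fluorescence within 50% of control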; further: strong numbers were not always called active
#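 Assay system: RFP-PRO-GFP reporter HT1080 cells; read-out basis: GFP/RFP fluorescence ratio; benchmarks: DMSO wells and RFP-L50D-GFP cells; doses: 20 µM single dose, 1% DMSO; schedule: overnight cell settling, then overnight compound exposure, 37 °C, 5% CO2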
# UUG fidelity: yeast start codon fidelity modulation | S. cerevisiae UUG-firefly luciferase reporter, luminescence/redox ratio | activity score, % at 18.7 µM | 350,000 tested, 0.13% active;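 active means replicate mean at a twofold rise or more, about +100% in these data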;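 further: firefly luciferase made from a UUG start codon reports start codon fidelity; reporter light over untreated wells divided by growth signal over untreated wells; some hits fall short of that in this replicate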
# eIF4H FP inh retest: recorded beside eIF4H FP inh, whose call it bears; inhibition, %; compound at 20 µM; confirmation average;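 mean of two retest wells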
# PABP polyA inh retest: second read-out of PABP polyA inh, no call of its own (marks repeat the call); inhibition, %; compound at 20 µM; confirmation repeats;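 mean of two retest wells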
# MT1-MMP act inh RFP: further read-out of MT1-MMP act inh, marked with its call; RFP signal change, %; measured here: RFP expression control read;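 0 = vehicle wells; hits needed this value within 50% of zero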
# Numbers without * were called inactive; i = inactive; u = inconclusive; x = not tested or not shown. Some of the compounds tested; rates above refer to the full screens.
SMILES,Env fusion inh,PABP polyA inh,Rce1 inh,CSC inhib,eIF4H FP inh,MT1-MMP act inh,MT1-MMP act inh RFP,UUG fidelity,others
CC(C)(C)[C@@H]1COC(=O)[C@@H](Cc2ccc(F)cc2)C/C=C\C[C@H](CC(=O)N(CCO)Cc2ccccc2)C(=O)N1,-5.4,x,x,x,x,0.5,0.3,2.2,
Cn1c(SCC(=O)Nc2nc(C(C)(C)C)cs2)nnc1C1CC1,12.1,-6.4,i,-6.2,-4.2,-2.9,-12.4,x,
O=C(Nc1nccs1)c1ccc2sc([C@H]3C[C@H](O)[C@@H](CO)O3)nc2c1,-6.3,x,x,x,x,3.7,0.9,-6.6,
CCc1c(C)sc(NC(=S)N2CCN(CC)CC2)c1C(=O)OC,6.1,17.9,i,52.8,2.6,-0.1,-1.2,x,
Cc1nnc(Nc2ccccn2)c2ccccc12,x,-9.4,i,-7.3,0.4,1.3,2.1,x,
O=C(N/N=C\c1cccc(Br)c1)c1ccccc1-n1cccc1,-127.9,1.0,i,-9.7,-11.8,-10.8,-8.0,1.4,
NC(=O)c1ccc(-c2nnn(CC(=O)Nc3cccc(S(=O)(=O)N4CCCC4)c3)n2)cc1,-2.7,x,x,-12.8,x,8.6,-2.7,3.4,
O=C(CC(NS(=O)(=O)c1ccc(Cl)cc1)c1ccco1)NC1CCCC1 (stereo not drawn),x,-14.7,i,1.9,-8.1,5.3,1.1,-6.0,
CC(=O)N1CCCN(C(=O)c2ccc3nc(Cc4cccc(Cl)c4)oc3c2)CC1,-7.0,-5.5,i,-3.6,-10.6,1.4,-0.6,-8.9,
O=C(Nc1nnc(SCc2ccccc2)s1)c1ccco1,-36.4,-8.4,i,6.8,6.0,-2.4,-0.7,-10.8,
O=C(NC1CCCCC1)n1c(=O)oc2cc(S(=O)(=O)N3CCCCC3)ccc21,-27.8,-3.4,i,-4.5,-0.7,3.5,3.0,-10.3,
CCc1cc(CN2CCOCC2)c(NC(=O)c2ccccc2)s1,-1.4,-1.5,i,-3.1,-3.0,-3.8,-1.0,x,
CCc1nonc1NC(=O)c1oc2ccc(F)cc2c1C,-20.6,-6.3,i,x,6.1,1.1,1.0,-14.2,
O=C(Nc1ccncc1)c1ccc(Br)cc1,3.4,2.2,i,-4.7,-13.7,1.2,-7.6,-17.7,
COc1ccccc1NS(=O)(=O)c1cc(NC(=O)c2ccccc2C)ccc1N1CCOCC1,-3.6,x,x,x,x,1.7,-3.4,-5.8,
CC(C)(C)NC(=O)NC(=O)COC(=O)c1cc[n+]([O-])cc1,2.9,-6.5,i,-2.7,6.3,-1.8,1.1,x,
Cc1ccc(-n2nc(C)c(=O)c(-c3ccccc3)c2NC(=O)c2cccs2)cc1,-56.3,-8.0,i,3.0,-5.2,3.2,3.2,x,
COc1cc2c(cc1OC)C(c1cccc(C)c1)CC(=O)N2 (stereo not drawn),17.4,-3.8,i,3.5,-12.0,-0.5,-1.4,x,
CC(C(=O)NCc1cccs1)N1CCN(S(=O)(=O)c2ccc3c(c2)OCCCO3)CC1 (stereo not drawn),3.6,x,x,x,x,5.2,4.8,9.4,
COc1cccc(N2C(=O)C(O)=C(C(C)=O)C2c2ccc(OC)c(OC)c2)c1 (stereo not drawn),-22.0,32.8,i,-5.8,3.2,1.9,-2.7,-1.2,
Cc1cc2c(cc1C)N(C(=O)CCl)CCN2C(=O)CCl,-8.5,x,x,x,x,-2.5,1.3,-21.1,
O=c1oc(-c2ccccc2NS(=O)(=O)c2ccccc2)nc2ccccc12,x,12.3,i,9.1,5.3,-3.5,0.5,-7.4,
Cc1cccc(C)c1OCC(O)CNC(C)c1ccccc1 (stereo not drawn),38.2,4.9,i,16.1,-4.4,-3.5,2.6,-10.9,
Cc1ccc(S(=O)(=O)N2CCN(CCc3ccncc3)CC2)cc1,20.4,x,x,58.0,x,2.1,0.5,-9.0,
CCOC(=O)[C@@H]1[C@H]2COc3cc(OC)ccc3[C@@H]2N2C(=O)N(c3cccc(F)c3)C(=O)[C@]12C,0.2,4.8,i,-14.5,-0.8,1.6,-0.3,-4.6,
Cc1ccccc1OCCCC(=O)Nc1ccc2c(c1)OCO2,x,7.3,i,25.0,-6.6,3.2,2.3,-12.5,
Cc1cc(N2CCN(C(=O)c3ccoc3)CC2)n2nc(-c3ccccc3)cc2n1,14.2,x,x,x,x,2.6,4.5,-19.8,
O=C(NCCCN1CCOCC1)c1ccccc1NS(=O)(=O)c1ccc(F)cc1,3.8,2.5,i,-5.4,1.9,2.6,5.7,x,
Nc1nc2c(nc(Br)n2[C@@H]2O[C@@H]3COP(=O)(O)O[C@H]3[C@H]2O)c(=O)[nH]1,-28.6,x,i,-6.4,x,2.5,1.6,-24.4,
Cc1ccc(C(=O)Nc2nnc(-c3ccncc3)s2)o1,x,5.3,i,-1.6,-1.6,0.8,3.7,-9.2,

# Retrieved by structure from the entries so far:
SMILES,Env fusion inh,PABP polyA inh,Rce1 inh,CSC inhib,eIF4H FP inh,MT1-MMP act inh,MT1-MMP act inh RFP,UUG fidelity,others
Cc1cc(N2CCN(C(=O)c3ccoc3)CC2)n2nc(-c3ccccc3)cc2n1,14.2,x,x,x,x,2.6,4.5,-19.8,
Cc1ccc(-n2nc(C)c(=O)c(-c3ccccc3)c2NC(=O)c2cccs2)cc1,-56.3,-8.0,i,3.0,-5.2,3.2,3.2,x,
O=c1oc(-c2ccccc2NS(=O)(=O)c2ccccc2)nc2ccccc12,x,12.3,i,9.1,5.3,-3.5,0.5,-7.4,
Cc1ccc(S(=O)(=O)N2CCN(CCc3ccncc3)CC2)cc1,20.4,x,x,58.0,x,2.1,0.5,-9.0,

# Back to the main list, starting 2 compounds before the break.
SMILES,Env fusion inh,PABP polyA inh,Rce1 inh,CSC inhib,eIF4H FP inh,MT1-MMP act inh,MT1-MMP act inh RFP,UUG fidelity,others
Nc1nc2c(nc(Br)n2[C@@H]2O[C@@H]3COP(=O)(O)O[C@H]3[C@H]2O)c(=O)[nH]1,-28.6,x,i,-6.4,x,2.5,1.6,-24.4,
Cc1ccc(C(=O)Nc2nnc(-c3ccncc3)s2)o1,x,5.3,i,-1.6,-1.6,0.8,3.7,-9.2,
CCCC1(C(=O)OCC)NC(c2ccco2)C2C(=O)N(C)C(=O)C21 (stereo not drawn),-1.1,11.4,i,9.5,3.1,1.4,4.7,-6.0,
Cc1cc(C(=O)N/N=C/c2cccn2C)n[nH]1,-18.6,-15.9,i,-16.6,0.5,0.1,7.8,-23.8,
CCN1CCN(CCNC(=O)C2CCN(Cc3nc(-c4ccc(Cl)cc4)oc3C)CC2)CC1,x,10.8,i,7.9,-2.9,x,x,x,
CC(=O)n1cc(C(C[N+](=O)[O-])SCCN)c2ccccc21 (stereo not drawn),x,2.9,i,-4.7,2.4,-10.4,-2.5,x,
Cc1ccc(S(=O)(=O)CC(=O)N2CCOCC2)cc1,1.6,10.9,i,1.2,3.0,1.3,6.5,x,
COc1cc[n+]([O-])cc1[N+](=O)[O-],-4.2,x,x,x,x,3.3,1.8,-6.6,
FCc1nc2nc(Cl)c(Cl)nc2[nH]1,14.8,x,x,x,x,0.8,2.7,3.0,
O=C(COC(=O)CCC(=O)c1ccc(F)cc1)Nc1cccc(S(=O)(=O)N2CCCC2)c1,-7.6,14.7,i,-0.5,-5.7,4.8,-3.3,x,
COC(=O)c1ccc(CNC(=O)CN(CCC(C)C)S(=O)(=O)c2ccc3c(c2)OCCO3)cc1,x,-2.9,i,-5.0,4.4,-1.7,-2.4,3.0,
Cc1cccc(-n2cc[nH]c2=S)c1C,3.0,-2.3,i,-5.1,1.9,-7.4,5.1,x,
CSCCC1NC(=O)N(CC(=O)Nc2ccc(Br)cc2Br)C1=O (stereo not drawn),-18.0,-1.4,i,-4.7,-14.3,1.8,2.7,x,
CCOC(=O)C1CCN(c2c(NCc3ccc(C(=O)NC4CCCC4)cc3)c(=O)c2=O)CC1,3.6,5.0,i,x,-8.2,1.4,6.3,-2.2,
CCN(CC)CCNC(=O)c1ccc(NC(=O)c2ccc(COc3ccccc3)cc2)cc1,-0.9,18.4,i,-6.2,-2.6,4.7,2.9,3.0,
O=C(Nc1sc2c(c1-c1nc3ccccc3[nH]1)CCCC2)C1CC1,-43.2,-1.7,i,18.1,-7.3,-6.7,2.3,-10.5,
CC(C)OC(=O)c1cccc(NC(=O)CSc2nnc(N)s2)c1,-11.3,u,i,-0.6,-17.0,8.0,2.0,-19.7,
COc1cccc(CNC(=O)COc2cccc(-n3cnnn3)c2)c1,x,x,i,-9.3,x,4.8,1.0,-12.9,
O=S(=O)(NCCN1CCCC1)c1ccc(C(F)(F)F)cc1,20.7,1.1,i,x,-4.0,3.2,3.2,9.4,
O=C(Nc1ccccc1)C1CC(=O)n2ncnc2N1 (stereo not drawn),x,-6.1,i,x,-6.8,3.1,-1.2,-1.0,
CN(C)S(=O)(=O)c1ccc(N2C(=O)CC2(/C=C/c2ccccc2)C(=O)NC2CCCC2)cc1 (stereo not drawn),-9.8,-2.8,i,12.8,-5.9,-1.4,-5.1,x,
Cc1ccc(C(=O)O)cc1-n1c(=O)n(Cc2ccccc2)c(=O)c2[nH]cnc21,-4.5,3.5,i,-3.3,-12.0,2.6,2.5,-19.9,
COc1ccccc1NC(=O)c1cc2ccccc2o1,x,26.4,i,-2.5,-2.7,-1.9,-1.6,-11.0,
CC1=NN(C(=O)CCc2ccc3c(c2)OCO3)C(O)(C(F)(F)F)C1 (stereo not drawn),7.6,0.9,i,0.7,7.3,8.5,10.9,x,
S=C(Nc1ccc(Cl)cc1)NC1CC2CCCC(C1)N2C1CCCC1 (stereo not drawn),x,-3.7,i,45.7,3.1,7.2,3.9,-22.6,
Cc1ccccc1NC(=O)c1ccc(-c2ccc(Cl)cc2Cl)o1,x,-18.6,i,46.8,-7.2,-6.9,-5.0,x,
CCN1CCN(C(=O)C(C)Nc2cc(Cl)c(OC)cc2OC)CC1 (stereo not drawn),1.7,-4.5,i,-15.7,88.1,0.8,9.2,x,eIF4H FP inh retest=13.7;PABP polyA inh retest=12.4
O=C(O)c1cccnc1SC1CC(=O)N(c2cccc3ccccc23)C1=O (stereo not drawn),x,13.3,i,-26.7,4.1,x,x,x,
CC(C)(C)S(=O)N1Cc2cc(CO)cc(CCO)c2[C@@H]1CCO (stereo partly drawn),13.0,x,x,x,x,0.9,1.9,-12.4,
Fc1ccccc1NC(=S)N(CCCN1CCOCC1)Cc1cccnc1,17.8,-6.9,i,0.5,5.9,-0.7,1.4,x,
COc1ccc(-c2nc3n(n2)C(c2ccccc2)C2=C(CCCC2=O)N3)cc1OC (stereo not drawn),-52.1,6.9,i,-14.8,-5.2,13.6,3.1,-9.8,
CCOc1ccc(S(=O)(=O)NCCN2CCOCC2)c2ccccc12,2.8,-0.2,i,-7.0,-5.7,0.7,1.7,-12.1,

# For convenience, 2 of the compounds above:
SMILES,Env fusion inh,PABP polyA inh,Rce1 inh,CSC inhib,eIF4H FP inh,MT1-MMP act inh,MT1-MMP act inh RFP,UUG fidelity,others
Cc1ccc(-n2nc(C)c(=O)c(-c3ccccc3)c2NC(=O)c2cccs2)cc1,-56.3,-8.0,i,3.0,-5.2,3.2,3.2,x,
COc1cc2c(cc1OC)C(c1cccc(C)c1)CC(=O)N2 (stereo not drawn),17.4,-3.8,i,3.5,-12.0,-0.5,-1.4,x,
